High-throughput results from PubChem BioAssay.
HTT prom inh = inhibitors of huntingtin promoter activity; HEK293 HTT promoter firefly luciferase reporter (activity 0% = vehicle and -100% = no light), 24 h; Potency, µM (series often up to 57.5 µM), for the others: top-dose activity change, negative = inhibition, usual class: inhibitors; 48,000 compounds, 0.93% hits; AID 1508623; active = well fitted inhibition curve with a large enough effect; inconclusive = small, poorly fitted or top-dose-only effect; inactive = no such curve, though single readings can be large or run the other way; note: nearly all actives have a fitted effect of over 50% in size
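Quantitative HTS used concentration series of up to 57.5 uM final on HEK293 luciferase reporter cells, 24 h at 37 degrees C. Readout was Dual-Glo firefly luminescence.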
PMP22 txn prim = PMP22 gene transcription modulation | 43,000 compounds, 2% hits | Potency, µM (top dose mostly 57.5 µM), without a hit: top-dose activity change, negative = inhibition, actives largely listed as inhibitors | S16 Pmp22-F2sN Schwann cells (luciferase reporters placed in the Pmp22 gene), FLuc/NLuc coincidence luminescence, 24 h; active = clear falling dose curves in both reporters; inconclusive = both reporters move, but less clearly or upward; inactive = either reporter flat; the % is the NLuc reporter signal; note: % is set by controls: 0 for no effect and ±100 for the full control effect; some results filed as inactive show a strong effect at the top dose
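Schwann cells carrying the coincidence reporter were exposed to library compounds for 24 h at 37C, then lysed and read for FLuc and, after quenching, NLuc luminescence on a CCD imager.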
* hit, by the source's call; ? = inconclusive; . = no result given; [ ] = another dose, or the depositor's remark. Potency is the fitted concentration of half-maximal effect. Hits appear at their usual frequency, and some 2.6% of all compounds hit somewhere here.

SMILES	HTT prom inh	PMP22 txn prim
CCc1ccc(CNC(=O)CCC(=O)N2Cc3cccc(OC)c3Oc3ncccc32)cc1	-6%	-12%
CCOC(=O)c1ccc(NC(=O)c2cc3cc(C)ccc3n2C)cc1	?	13%
Cc1ccc(CSc2nc3ccncc3n2Cc2nc(-c3ccccc3C)oc2C)cc1	-5%	?
Cc1nc(-c2ccc(S(=O)(=O)Nc3ccc(C)c(N(C)C)c3)cc2)co1	?	?
Cc1c(-c2nnc(SCC(=O)Nc3ccccc3F)o2)nnn1-c1ccc(F)cc1	66%[activator]	-7%
CCc1nnc(NC(=O)c2nc(SCc3ccccc3C)ncc2Cl)s1	-7%	2%
CSc1ccc(CCNC(=O)c2c(C)nn(-c3ccc(F)cc3)c2-n2cccc2)cc1	?	15µM*
CCCN(CCC)c1nn2c(=O)c(C(=O)NCc3cc(Br)ccc3OC)cnc2s1	-1%	-37%
COc1cc(Cl)c(C)cc1NC(=O)Cn1ncc2c3ccccc3n(Cc3ccccc3)c2c1=O	-8%	1%
CC(C)CCNC(=O)CCC(=O)NNc1nc2ccccc2c2nc(-c3ccccc3)nn12	-6%	?
CCc1ccccc1NC(=O)N1CC(CC)Oc2ccc(Cl)cc21 (centres undefined)	-20%	-4%
CC(C)CCn1c(=O)c2sccc2n2c(CCCC(=O)NC(C)c3ccccc3)nnc12 (centres undefined)	-12%	-5%
COc1ccc(Nc2c(-c3ccc(Cl)cc3)nc3cnccn23)cc1OC	-14%	-28%
CCOc1ccc(-c2nnc(SCC(=O)NCc3ccccc3)o2)cc1	-28%	2%
CC1CCCCN1CCCNC(=O)CN1C(=O)c2cccnc2Oc2ccc(Cl)cc21 (centres undefined)	0%	-28%
Cc1ccc2c(c1)N(CC(=O)NCCCN1CCCCC1)C(=O)c1cccnc1O2	-1%	-13%
COc1ccc(N2CCN(C(=O)CSCc3nc(-c4ccccc4Cl)oc3C)CC2)cc1	?	?
Cc1cccc(NC(=O)c2cn(-c3ccccc3)nc2-c2ccccc2)c1C	?	?
COc1ccc(-c2noc(-c3ccc(N4CCN(c5ccc(OC)cc5)CC4)c([N+](=O)[O-])c3)n2)cc1	1%	1%
CCOC(=O)c1cccc(NC(=O)NCc2ccc3c(c2)CCN3C(=O)c2ccccc2)c1	?	?
Cc1cccc(CSc2nc3c(c(=O)[nH]2)CCC3)c1	-14%	-6%
O=C(CSc1nc(-c2ccccc2)no1)N1CCN(c2ccc(F)cc2)CC1	2%	-19%
COc1cc(NC(=O)c2c(-c3ccc(C)cc3)nnc3ccccc23)cc(OC)c1OC	3%	5%
CCc1ccc(NC(=O)C2CCCN2S(=O)(=O)c2ccc3nc(-c4ccccc4)[nH]c3c2)cc1 (centres undefined)	?	-45%
Cn1c(Nc2ccc(Cl)cc2)cc(=O)n(C)c1=O	7%	-1%

Compounds listed so far containing an NH in an aromatic ring (two):
SMILES	HTT prom inh	PMP22 txn prim
Cc1cccc(CSc2nc3c(c(=O)[nH]2)CCC3)c1	-14%	-6%
CCc1ccc(NC(=O)C2CCCN2S(=O)(=O)c2ccc3nc(-c4ccccc4)[nH]c3c2)cc1 (centres undefined)	?	-45%

Next part:
SMILES	HTT prom inh	PMP22 txn prim
CCOC(=O)c1sc(NC(=O)c2cc3nc(-c4ccc(Br)cc4)cc(C(F)(F)F)n3n2)c(C(=O)OCC)c1C	?	?
CCOC(=O)c1[nH]c2ccccc2c1NC(=O)c1ccccc1OCC	-30%	?
CCOC(=O)c1[nH]c(C)c(CCC(=O)Nc2ccccc2OCC)c1C	-28%	-13%
Cc1ncc(CO)c2c1Oc1nc(-c3ccccc3)nc(SCC(=O)Nc3cccc(C(F)(F)F)c3)c1C2	-22%	-44%
O=C(Nc1ccc(Br)c(Cl)c1)c1ccc(C(=O)Nc2ccc(Br)c(Cl)c2)cc1	-10%	14%
Cc1cccc(CSc2nc3cc(C(=O)NC4CCCC4)ccc3c(=O)n2Cc2ccccc2)c1	5%	-14%
Cc1ccc(-n2nc(-c3ccccc3)c3cnc4cc5c(cc4c32)OCO5)cc1C	-3%	-27%
O=C(CSc1c2c(nc3cc(Cl)ccc13)CCCC2)NCc1ccccc1Cl	-32%	?
COc1ccc(CNC(=O)CCn2c(=O)c3cccn3c3ccc(F)cc32)cc1OC	-3%	-30%
CN(Cc1ccccc1)C(=O)CSc1nc2ccccc2n1Cc1ccccc1F	-16%	-12%
CCCn1c(NCc2ccccc2F)nc2ccccc21	25%	20%
CN(C)c1ccc(CNc2nc(-c3ccco3)nn2C(=O)c2cccc([N+](=O)[O-])c2)cc1	54%[activator]	-10%
COc1ccccc1N1CCN(S(=O)(=O)c2ccc(F)c(C(=O)Nc3ccc(Cl)cc3C(F)(F)F)c2)CC1	?	?
Cc1ccc(-c2nc3ccccc3[nH]2)cc1NC(=O)COc1ccccc1[N+](=O)[O-]	?	?
CC(C)Cc1nn2c(=O)cc(COC(=O)c3ccc(NC(=O)C4CCCCC4)cc3)nc2s1	-8%	-2%
CCOc1ccc(-c2c(C)nn3c(C)c(C(=O)NCCc4ccc(Cl)cc4)cnc23)cc1OCC	?	?
CCOC(=O)c1oc2c(c1C)-c1nn(Cc3cccc(Cl)c3)cc1CC2	?	?
CCOC(=O)Cn1c(=O)n(CC2CCCO2)c2nc(-c3ccc(C(C)C)cc3)nc(C(N)=O)c21 (centres undefined)	-9%	-5%
CC1=C(C(=O)Nc2cc(Cl)ccc2C)C(c2ccco2)n2ncnc2N1 (centres undefined)	-5%	-34%
Cc1ccc(NCc2nc3ccccc3n2CCOc2ccccc2C)cc1	-25%	?
Cc1cc(C)cc(OCC(=O)Nc2cccc(-c3nc4ccccc4[nH]3)c2)c1	7%	-20%
C[N+]1(CC2COC(c3ccccc3)(C3CCCCC3)O2)CCCCC1 (centres undefined)	4%	.
CCOc1cc(CNC(=O)c2ccccc2NC(=O)c2nsc3ccccc23)ccc1OC	20%	?
CCOc1ccc(CCNC(=O)C2=C(C)C(=O)OC23CCCCC3)cc1	-14%	-9%
Cc1ccc(OCC(=O)Nc2ccc(OCc3cc(=O)n4c(C)csc4n3)cc2)cc1C	7%	-9%

Whole records as entered above. Values in the order: HTT prom inh | PMP22 txn prim
CCOc1ccc(-c2c(C)nn3c(C)c(C(=O)NCCc4ccc(Cl)cc4)cnc23)cc1OCC is listed with ? | ?
Cc1cc(C)cc(OCC(=O)Nc2cccc(-c3nc4ccccc4[nH]3)c2)c1 is listed with 7% | -20%
O=C(CSc1c2c(nc3cc(Cl)ccc13)CCCC2)NCc1ccccc1Cl is listed with -32% | ?
CCOC(=O)c1[nH]c(C)c(CCC(=O)Nc2ccccc2OCC)c1C is listed with -28% | -13%

Continuation.
SMILES	HTT prom inh	PMP22 txn prim
CCOC(=O)C1CCC(CN(Cc2c(Cl)cccc2Cl)S(=O)(=O)c2ccc(F)c(C)c2)CC1 (centres undefined)	-24%	?
COc1ccc(-c2noc(-c3ccc(N4CCC(C)CC4)c([N+](=O)[O-])c3)n2)cc1OC	-8%	1%
Cc1ccc(C)c(N2CCN(CCCNC(=O)Cn3ncc4c5ccccc5n(C)c4c3=O)CC2)c1	-15%	?
Cc1ccc(C)c(N2CCN(C(=O)c3cc4c(=O)n(Cc5ccccc5)ccc4nc3C)CC2)c1	-30%	-8%
COc1cc(OC)c(NC(=O)CSC2=Nc3ccccc3N=C(c3ccc(F)cc3)C2)cc1Cl	0%	?
NC(=O)c1cc(S(=O)(=O)NCc2ccc(Br)cc2)cs1	-24%	-3%
CCC(C)Sc1oc(-c2ccco2)nc1S(=O)(=O)c1ccc(Cl)cc1 (centres undefined)	?	?
CC(=O)c1cccc(NC(=O)c2c(C)nn(-c3ccc(F)cc3)c2-n2cccc2)c1	?	?
COc1ccc(-c2nnc(SCC(=O)Nc3ccc(C)c(C)c3)s2)cc1	-16%	22%
COc1ccccc1Nc1cc(C(=O)NCCCN(C)c2ccccc2)c2ccccc2n1	?	?
CCc1ccc(NC(=O)c2nc3nc(C)cc(C(F)F)n3n2)cc1	32%[activator]	-22%
Cc1ccc(S(=O)(=O)N(CC(=O)NCCSc2ccc(Cl)cc2)c2cccc(Cl)c2)cc1	?	?
COc1ccccc1C(=O)NCCn1cc(SCc2ccc(C)cc2)c2ccccc21	?	?
COc1ccccc1CNC(=O)c1cnc(N(C)C)nc1	-8%	-23%
Cc1ccc(Cn2c(=O)n(CCCC(=O)NCc3ccccc3Cl)c(=O)c3ccccc32)cc1	-5%	-26%
O=C(Cn1cc(SCc2ccccc2)c2ccccc21)N1CCCCCC1	2%	?
COc1ccc(CSc2nc3ncccc3[nH]2)cc1	7%	18%
COc1ccc(N2CC(NC(=O)C3CCCCC3)CC2=O)cc1 (centres undefined)	-18%	-2%
CCCCC12CN3CC(C)(CN(C1)C3c1ccc(O)c(OC)c1)C2=O (centres undefined)	-7%	?
Cc1ccc(S(=O)(=O)Cc2nc(-c3ccc(C(=O)NCc4ccccc4)cc3)oc2C)cc1	?	?
CCNC(=O)CC1C(=O)N(c2ccc(C)cc2)C(=O)N1Cc1ccc(C)cc1 (centres undefined)	-11%	-10%
CCOC(=O)c1c(NC(C)=O)c2c3c(sc2n1Cc1nc(-c2ccccc2C)oc1C)CCCC3	18%	-13%
CC1CCN(S(=O)(=O)c2ccc3c(c2)CCN3C(=O)Nc2ccc(Br)cc2F)CC1	-1%	-42%
O=C(CN1C=NS(=O)(=O)c2ccccc21)Nc1ccccc1F	-7%	10%
C#CCn1cnc2c(cnn2-c2ccc(F)cc2)c1=O	-16%	-14%
SMILES	HTT prom inh	PMP22 txn prim
Cc1ccccc1NC(=O)Cn1c(=O)n(Cc2ccco2)c(=O)c2ccc(C(=O)NC3CCCC3)cc21	-10%	?
Cc1ccc(Nc2c(-c3ccc(N(C)C)cc3)nc3nc[nH]n23)cc1	70%[activator]	-10%
O=C(CSc1nc2c(c(=O)[nH]1)CN(Cc1ccc3c(c1)OCO3)CC2)Nc1ccc(F)c(F)c1	?	-25%
COc1ccc(N2CCN(C(=O)CCNS(=O)(=O)c3ccc4c(c3)CCN4C(=O)C3CC3)CC2)cc1	?	?
COc1ccc(NC(=O)CSc2nc3c(c(=O)[nH]2)CN(Cc2ccccc2)CC3)cc1Cl	-23%	-1%
COc1cccc(Nc2c3c(nc4nncn24)CCC3)c1	-17%	-23%
CCOc1ccc(NC(=O)CN2C(=O)COc3ccc(S(=O)(=O)NC4CCCC4)cc32)cc1	-19%	3%
COc1ccccc1/C=C/c1onc(C)c1S(=O)(=O)N1CCC(C(=O)N2CCC(C)CC2)CC1	-4%	4%
Cc1ccc(C)c(-c2nn(CC(=O)Nc3cc(F)ccc3F)c(=O)c3c2CCCC3)c1	?	-25%
CCS(=O)(=O)c1nc(S(=O)(=O)c2ccc(C)cc2)c(NC)s1	-16%	38%
Cn1nnc2c(NCCc3ccccc3)ncnc21	-9%	1%

Filtered by structure: the compounds so far with two or more sulfur atoms
SMILES	HTT prom inh	PMP22 txn prim
CCc1nnc(NC(=O)c2nc(SCc3ccccc3C)ncc2Cl)s1	-7%	2%
NC(=O)c1cc(S(=O)(=O)NCc2ccc(Br)cc2)cs1	-24%	-3%
CCC(C)Sc1oc(-c2ccco2)nc1S(=O)(=O)c1ccc(Cl)cc1 (centres undefined)	?	?
COc1ccc(-c2nnc(SCC(=O)Nc3ccc(C)c(C)c3)s2)cc1	-16%	22%
Cc1ccc(S(=O)(=O)N(CC(=O)NCCSc2ccc(Cl)cc2)c2cccc(Cl)c2)cc1	?	?
CCS(=O)(=O)c1nc(S(=O)(=O)c2ccc(C)cc2)c(NC)s1	-16%	38%
